Kir21 inh = inhibitors of mouse Kir2.1 inward-rectifier potassium channel | HEK293-Kir2.1, FluxOR thallium flux fluorescence; hits give low values | Inward rectifier potassium channel 2 (Mus musculus), P35561 | B-score at 10 µM | actives 0.85% (n = 310,000) | AID 1672, 2009;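 active means fluorescence ratio B-score at or below minus 3 SD of library scores, with starting-brightness B-score within 2 SD, cut at about -4.2 in these data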;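 further: channel flux triggered by added potassium and thallium sulfate stimulus; B-score of peak minus minimum fluorescence over baseline after thallium stimulus; more negative B-score means stronger Kir2.1 block with less thallium influx; some compounds called inactive have numbers as strong as hits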
Target sequence (P35561 whole entry, looked up): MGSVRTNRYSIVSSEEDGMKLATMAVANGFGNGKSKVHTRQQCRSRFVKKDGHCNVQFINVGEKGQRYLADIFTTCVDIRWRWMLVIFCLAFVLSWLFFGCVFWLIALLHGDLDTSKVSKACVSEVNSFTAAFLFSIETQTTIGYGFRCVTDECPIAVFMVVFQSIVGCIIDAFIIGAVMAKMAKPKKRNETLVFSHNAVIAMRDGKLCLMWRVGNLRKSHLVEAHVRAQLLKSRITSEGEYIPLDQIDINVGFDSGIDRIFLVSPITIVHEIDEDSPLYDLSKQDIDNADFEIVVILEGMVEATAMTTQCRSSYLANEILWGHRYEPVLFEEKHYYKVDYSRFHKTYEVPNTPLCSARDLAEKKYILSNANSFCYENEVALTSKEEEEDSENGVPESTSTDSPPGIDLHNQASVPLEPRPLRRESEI
The depositor's hits bear a star. Not all compounds are listed, and most or all hits are left out here.

SMILES | Kir21 inh
O=C(c1ccco1)N1CCN(c2ncnc3c2cnn3-c2ccccc2)CC1 | 0
CCOc1ccc(-c2cn3ccccc3n2)cc1 | 2.2
CC(C)CN(C(=O)COC(=O)C1CC1)c1c(N)n(Cc2ccccc2)c(=O)[nH]c1=O | -0.62
CC(C)(C)n1ncc2c(=O)n(Cc3c(F)cccc3Cl)cnc21 | -0.28
C[C@H]1C[C@H]2[C@@H]3CCC4=CC(=O)C=C[C@]4(C)[C@@]3(F)[C@@H](O)C[C@]2(C)[C@@]1(O)C(=O)CO | 0.57
COC(=O)c1ccc(CSc2nnnn2C)o1 | 0.22
COc1ccc(NC(=O)CCC(=O)Nc2nnc(CC(C)C)s2)cc1Cl | 0.01
CC1CCc2sc(C(=O)NCc3ccc(F)cc3)cc2C1 (stereo not drawn) | 0.64
COc1ccccc1-c1cc(C(=O)N2CCCCC2)no1 | 3.6
CN(C(=O)COC(=O)c1cccc(NS(=O)(=O)c2ccc(F)c(F)c2)c1)C1CCS(=O)(=O)C1 (stereo not drawn) | -1.3
CC1CCN(C(=O)c2ccc3c(=O)n4c(nc3c2)CCCCC4)CC1 | -0.15
CC(C)(C)C(=O)NC(=S)Nc1ccc(C(F)(F)F)cc1 | -0.01
CC(Oc1ccc(F)cc1)C(=O)N(Cc1ccccc1)c1c(N)n(Cc2ccccc2)c(=O)[nH]c1=O (stereo not drawn) | -0.59
CCOC(=O)N1CCN(c2c(N3CCN(c4ccccc4OC)CC3)c(=O)c2=O)CC1 | -0.82
CC(=O)Nc1sc(NC(=O)c2ccc(Cl)cc2)nc1-c1cccs1 | -1.7
CS(=O)(=O)c1ccc(Cl)c(NC(=O)CCl)c1 | -0.83
Nc1ccc(S(=O)(=O)Nc2nccc(/C=C/c3ccc(Cl)cc3Cl)n2)cc1 | 0.1
COc1ccc(N(C(=O)c2ccco2)S(=O)(=O)c2cc(OC)ccc2OC)cc1 | 1
O=C(CSc1cccc[n+]1[O-])NCC1CCCCC1 | -0.07
CC(C)c1ccc(NC(=S)NN2CCOCC2)cc1 | 1.8
CC(C)C(c1nnnn1Cc1ccc(F)cc1)N1CCN(C2CCCCC2)CC1 (stereo not drawn) | -0.97
Cc1cc(C)n(CC(O)COc2ccccc2C(=O)Nc2ccccc2)n1 (stereo not drawn) | 0
CCc1cccc(C)c1NC(=O)C1C2CCC(O2)C1C(=O)O (stereo not drawn) | 1.6
COc1ccc(CCN(C)C(=O)c2cc(-c3ccccc3)nc3ccccc23)cc1OC | 2.2
COc1ccc(OC)c(-c2cc(C(=O)N3CCN(c4ccccc4)CC3)no2)c1 | -0.16
CCOc1ccc(-c2[nH]nc3c2C(c2ccc4c(c2)OCO4)C(C#N)=C(N)O3)cc1OC (stereo not drawn) | -0.08
COc1ccc(-n2nc3c(N4CCC(C(=O)NCc5ccccc5C)CC4)nnc(C)c3c2C)cc1 | -1.2
COc1ccccc1N1CCN(C2CCN(C(=O)c3cc(OC)c(OC)c(OC)c3)CC2)CC1 | -0.43
O=C(C[n+]1ccc(Cc2ccccc2)cc1)Nc1ccc([N+](=O)[O-])cc1Cl | -0.2
COc1ccc(CCNC(=O)CSc2nc(C)nc3c2c(=O)n(C)c(=O)n3C)cc1OC | -0.66
O=C(c1ccncc1)c1ccc(NS(=O)(=O)c2ccc(Br)s2)cc1 | 1.6
CCOC(=O)C1=C(C)NC(=O)C1CC(=O)Nc1ccccc1 (stereo not drawn) | 0.1
NC(=O)C(Cc1ccccc1)NC(=O)C12CC3CC(CC(C3)C1)C2 (stereo not drawn) | 1.4
O=C(CN1C(=O)NC2(CCc3ccccc32)C1=O)Nc1ccc(N2CCOCC2)cc1 (stereo not drawn) | 0.77
CC(C)C(C(=O)NCc1ccco1)N(C(=O)CNS(=O)(=O)c1ccc(Cl)cc1)C1CCCC1 (stereo not drawn) | 0.62
Cn1cccc1CC(=O)N/N=C/c1ccc(C(C)(C)C)cc1 | -0.07
COC(=O)c1sc(NC(=O)COc2cccc(C)c2)nc1C | 0.38
COc1ccc(-c2nc(SCC(=O)Nc3c(F)cccc3F)n[nH]2)cc1 | 0.79
Cc1ccc(-n2ncc3c2CC(C)(C)CC3NC(=O)CCn2cncn2)cc1 (stereo not drawn) | -0.79
Nc1cc(-c2ccccc2)nn1S(=O)(=O)c1ccc(F)cc1 | -0.12
CC(C)C(c1nnnn1CCc1ccccc1)N1CCSCC1 (stereo not drawn) | -1.2
Cc1ccc([N+](=O)[O-])c(OCCN2CCCCCC2)c1 | 1.4
O=C(c1ccccc1)N1CCN(CC#Cc2ccccc2)CC1 | 1.6
CC1(C)CC(=O)c2cn3c(nc2C1)nc1ccccc13 | 0.9
CCC(=O)c1ccc(N2CCN(C(=O)COc3ccc(F)cc3)CC2)c(F)c1 | 0.03
CCOc1ccc(C(C)C)cc1S(=O)(=O)N1CCOCC1 | -1.9
CCOC(=O)CN1C(=O)S/C(=C\c2ccc(-c3cccc(C(=O)O)c3C)o2)C1=O | 0.05
O=C1CN(S(=O)(=O)c2ccccc2)c2ccccc2N1 | 0.07
CC(C)c1ccc2oc(-c3ccc(N)cc3)nc2c1 | 0.46
Cc1ccc(C)c(S(=O)(=O)N2CCN(C(=O)CNC(=O)c3ccc4ccccc4c3)CC2)c1 | 0.2
COc1ccc(NC(=O)CSc2nnc(-c3ccccn3)n2N)cc1Cl | 0.85
C=CCn1c(C(C)C)nc2ccccc21 | -0.08
Cc1cc2c(cc1S(=O)(=O)Nc1ccc(OC(F)(F)F)cc1)OCC(=O)N2 | -0.08
O=C(CSCc1ccccc1)Nc1cc([N+](=O)[O-])ccc1F | -0.41
NC(=O)COC(=O)c1ccccc1SCC(=O)NC1CCCCCC1 | 2.6
CCN(CC)S(=O)(=O)c1ccc(C(=O)Nc2c3c(nn2C(C)(C)C)CS(=O)(=O)C3)cc1 | -0.02
CC(=O)NCC(=O)N1CCC(n2nccc2NC(=O)CCCc2ccccc2)CC1 | 0.34
Cc1nnc2n(c1=O)C(CS(=O)(=O)c1ccccc1)CS2 (stereo not drawn) | 0.6
COc1ccc(N=C2C(=Nc3ccc(OC)cc3)N(c3ccc(OC)cc3)C(=S)N2C)cc1 | -0.42
Cc1ccc(Cn2nnc(C(=O)Nc3cc(C)ccc3C)c2N)cc1 | -0.05

4 structures already listed, ordered by heavy-atom count, lowest first.
SMILES | Kir21 inh
C=CCn1c(C(C)C)nc2ccccc21 | -0.08
Cc1nnc2n(c1=O)C(CS(=O)(=O)c1ccccc1)CS2 (stereo not drawn) | 0.6
CC(=O)NCC(=O)N1CCC(n2nccc2NC(=O)CCCc2ccccc2)CC1 | 0.34
COc1ccc(N=C2C(=Nc3ccc(OC)cc3)N(c3ccc(OC)cc3)C(=S)N2C)cc1 | -0.42

New compounds follow.
SMILES | Kir21 inh
CCOC(=O)c1c(C)[nH]c(C(=O)COC(=O)COc2ccccc2C=O)c1C | 0.61
CC(=O)c1nn(-c2cccc(Br)c2)cc1C(=O)c1ccc2ccccc2c1 | -0.02
COCCNC(=O)C1CC(c2cccc([N+](=O)[O-])c2)=NO1 (stereo not drawn) | 0.48
CN1CCN(c2ccc(S(=O)(=O)Nc3ccccc3)cc2[N+](=O)[O-])CC1 | -1.2
CCN(CC)C(=O)C(C)N(C#N)c1nc(SC)nc(N(C)C)n1 (stereo not drawn) | -0.12
O=C(O)/C=C\C(=O)Nc1ccccc1N1CCN(c2ccccc2)CC1 | -1.1
Cc1cc(C)c(NC(=O)CNC(=O)CN2C(=O)NC3(CCCc4ccccc43)C2=O)c(C)c1 (stereo not drawn) | 0.67
CC(=O)Nc1ccccc1C(=O)N1CCc2ccccc21 | 0.64
COc1ccc(C2(C(=O)NCCCN3CCOCC3)CCOCC2)cc1 | 0.04
CC1CCC(NC(=O)c2ccc3snnc3c2)CC1 (stereo not drawn) | -1.5
O=C(Oc1ccc2c(c1)OCC2=O)c1ccc(Cl)cc1 | 0.08
Cc1sc2nc(SCC(=O)NCCOCCO)nc(N)c2c1C | -0.7
CCOC(=O)C1(Cc2ccccc2C)CCCN(C(=O)c2ccc(CSC)o2)C1 (stereo not drawn) | -3.8
COc1ccc(C(CNC(=O)COc2ccccc2C#N)N2CCOCC2)cc1 (stereo not drawn) | 0.03
CCCCN(CC(=O)NCc1ccc(Cl)cc1)S(=O)(=O)c1ccc2c(c1)OCCO2 | 0.95
CCC(=O)NC(NC(=S)Nc1ccccc1Br)C(Cl)(Cl)Cl (stereo not drawn) | -0.07
COc1ccc(CNC(=O)C2CCN(S(=O)(=O)c3c(C)n[nH]c3C)CC2)cc1 | 2.2
COc1ccc(-c2nnc(SCC(=O)Nc3nncs3)o2)cc1 | 1.3
COC(=O)c1sccc1-n1cccc1C(=O)C(=O)N1CCCC1 | -0.63
COc1cc2nc(N(CCN(C)C)C(=O)c3ccc4ccccc4c3)sc2cc1OC | -0.46
Cc1c(N=Cc2nc3ccccc3n2C)c(=O)n(-c2ccccc2)n1C | 2.1
CN1CCN(NC(=O)Nc2ccc(Br)cc2)CC1 | -1
COc1ccccc1-n1c(SCC(=O)N2CCCCC2)nc2cccnc21 | -0.11
O=C(N/N=C\c1ccccc1F)c1ccc(-c2ccccc2)cc1 | -1.7
Cc1c(N=C2NC(=O)C(CC(=O)Nc3ccc(Cl)cc3)S2)c(=O)n(-c2ccccc2)n1C (stereo not drawn) | 0.8
O=C(CSc1nc2ccccc2n1CCc1ccccc1)N1CCOCC1 | -1.7
CCCCOCCCNCC(=O)Nc1ccc(S(N)(=O)=O)cc1 | 1.4
CCCCc1oc2ccccc2c1C(=O)c1cc(I)c(OCCN(CC)CC)c(I)c1 | 2
CCc1cc2c(=O)[nH]cnc2s1 | 1.8
CCOC(=O)/C=C1\SCC(=O)N1CC(=O)NC(C)c1ccccc1 (stereo not drawn) | 1.6
COc1ccc(C/C(C)=N/NC(=O)c2cc(C)oc2C)cc1 | -0.05
O=C(Nc1nc(N2C(=O)c3ccccc3C2=O)n(-c2ccccc2)n1)c1ccc(Cl)cc1 | -0.64
Cc1ccc(Nc2nc(N3CCOCC3)nc(N3CCOCC3)n2)cc1 | -1
Cc1c(CC(=O)NCCCCCC(=O)O)c(=O)oc2cc3occ(-c4ccccc4)c3cc12 | 1.3
COc1ccc(/C=N/NC(=O)CNC(=O)c2ccc3c(c2)OCCO3)c(C(=O)O)c1OC | 0.13
C/C(=N\OC(=O)c1c(-c2ccccc2Cl)noc1C)c1ccncc1 | 1.4
CC(=O)Nc1ccc(S(=O)(=O)Nc2nccc(C)n2)cc1 | -0.33
COc1cc(/C=N/O)ccc1OCc1ccc([N+](=O)[O-])cc1 | -1.8
O=C(CN(Cc1ccccc1)C(=O)CCC(=O)Nc1ccccn1)NCCc1ccccc1 | 0.64
CCN(CC)Cc1ccc(NC(=O)c2sc3cc(Cl)ccc3c2Cl)cc1 | 0.87
COc1ccc2ccccc2c1CNC(=O)CC1C(=O)NCCN1CC(C)(C)C (stereo not drawn) | -0.32
Cc1ccc(S(=O)(=O)C(C#N)c2nc3ccccc3nc2N2CC(C)OC(C)C2)cc1C (stereo not drawn) | 0.19
CC(=C\c1ccccc1)/C=C1/SC(=S)N(C(C(=O)O)C(C)C)C1=O (stereo not drawn) | 1.1
Nc1nc(SCc2nc3sc4c(c3c(=O)[nH]2)CCCC4)n[nH]1 | 0.16
COC(=O)c1cc(=O)nc2sc(-c3cccs3)nn12 | -0.83
Cc1ccc(/C=N/NC(=O)c2ccoc2C)o1 | 0.15
COc1ccccc1C1CCN(c2ccc([N+](=O)[O-])cn2)CC1 | 0.09
COc1ccc2cc(CN(CCc3ccccc3)Cc3nnnn3Cc3ccco3)c(=O)[nH]c2c1 | 2.2

4 of the compounds above, field by field.
Nc1nc(SCc2nc3sc4c(c3c(=O)[nH]2)CCCC4)n[nH]1
  Kir21 inh: 0.16

COC(=O)c1cc(=O)nc2sc(-c3cccs3)nn12
  Kir21 inh: -0.83

Cc1ccc(/C=N/NC(=O)c2ccoc2C)o1
  Kir21 inh: 0.15

COc1ccccc1C1CCN(c2ccc([N+](=O)[O-])cn2)CC1
  Kir21 inh: 0.09

(list continues)
SMILES | Kir21 inh
O=C(Nc1cc(C(F)(F)F)ccc1Cl)c1ccc(NC(=O)C(F)(F)F)cc1 | 1.2
CC1CCc2cc(F)ccc2N1C(=O)C1(C)CC1(Cl)Cl (stereo not drawn) | -0.08
COC(=O)c1cc(S(=O)(=O)NCc2ccccc2)c[nH]1 | 0.11
Cc1ccc2c(c1)N(C(=O)CCC(=O)N1CCC(C(N)=O)CC1)CC(C)O2 (stereo not drawn) | 1.3
Nn1c(SCC(=O)N2CCCCC2)nnc1-c1ccncc1 | -0.26
Cc1cc(C)c(C)c(OCC(=O)O/N=C(\N)c2cccnc2)c1 | 0.02
Cc1ccc(Cl)cc1Nc1nc(N2CCOCC2)nc(N2CCOCC2)n1 | -0.85
CCOC(=O)COc1ccc2c(=O)c(-c3ccc(OC)c(OC)c3)c(C(=O)OCC)oc2c1 | 0.11
CC(OC(=O)c1cc(O)c2ccccc2c1O)C(=O)Nc1ccc(C(N)=O)cc1 (stereo not drawn) | 0.97
COc1ccc(C(C(=O)NC(C)(C)C)N(CC2CCCO2)C(=O)CCC(=O)Nc2cc(C)on2)cc1 (stereo not drawn) | 0.95
CCCN1C(=O)C(NC(=O)c2ccncc2)(C(F)(F)F)C2=C1CC(C)(C)CC2=O (stereo not drawn) | 0.84

Bioassay records deposited in PubChem by Johns Hopkins Ion Channel Center.
